High-throughput results deposited in PubChem by several laboratories.
RecA splice inh: Mtb RecA intein splicing inhibition. P9WHJ3. cell-free RecA intein splicing, fluorescence. inhibition, %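 (about 9 µM by stock and volumes)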. hit rate 0.75% among 290,000. AID 2221; in the data active = inhibition above about 30%; inconclusive = no clear call, values can overlap the other calls;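 note: 0% = vehicle wells and 100% = reference inhibitor control wells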
Target sequence (P9WHJ3 whole entry, looked up, canonical isoform): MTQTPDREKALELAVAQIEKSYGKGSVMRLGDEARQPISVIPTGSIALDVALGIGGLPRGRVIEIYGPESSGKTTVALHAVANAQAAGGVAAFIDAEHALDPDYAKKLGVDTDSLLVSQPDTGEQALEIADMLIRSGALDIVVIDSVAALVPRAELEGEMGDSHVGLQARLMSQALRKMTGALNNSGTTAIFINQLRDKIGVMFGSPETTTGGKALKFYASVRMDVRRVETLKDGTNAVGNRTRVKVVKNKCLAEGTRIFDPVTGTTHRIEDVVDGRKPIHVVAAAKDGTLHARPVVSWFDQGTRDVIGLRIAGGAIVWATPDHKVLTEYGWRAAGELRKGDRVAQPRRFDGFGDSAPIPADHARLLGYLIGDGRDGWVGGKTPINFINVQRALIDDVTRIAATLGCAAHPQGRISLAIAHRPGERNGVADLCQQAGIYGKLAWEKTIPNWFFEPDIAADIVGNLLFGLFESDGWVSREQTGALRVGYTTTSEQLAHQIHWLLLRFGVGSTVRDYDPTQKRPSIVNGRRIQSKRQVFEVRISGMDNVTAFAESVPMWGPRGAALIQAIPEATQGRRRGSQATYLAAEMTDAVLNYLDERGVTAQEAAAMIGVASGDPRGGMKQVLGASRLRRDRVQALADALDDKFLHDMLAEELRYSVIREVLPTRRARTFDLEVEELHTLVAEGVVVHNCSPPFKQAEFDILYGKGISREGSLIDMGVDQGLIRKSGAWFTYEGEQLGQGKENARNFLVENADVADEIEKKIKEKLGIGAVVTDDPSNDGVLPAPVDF
Mtb bLac sens: beta-lactam sensitization of Mtb H37Rv. M. tuberculosis H37Rv growth with meropenem, percent inhibition; hits of this screen are not shown here. hit rate 0.27% among 330,000. inhibition, % at 25 µM. AID 434955;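 active = about 74% or more and at least 40 points above the plate without the antibiotic, then above 30% in a dose series; inconclusive = first-round hits that could not be retested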;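 note: growth measured after seven days incubation then overnight dye step; 0% = bacteria only wells and 100% = bacteria with antibiotic; twin plates without the antibiotic show which effects depend on it; some results filed as inactive read as strong as hits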
YopH PTP inh: YopH (Yersinia) phosphatase inhibition | fluorescence Ex485/Em525 | inhibition, %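 (about 10 µM by stock and volumes)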 | hit rate 0.16% among 140,000 | AID 898;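 active = inhibition of 50% or more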;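 note: controls were vehicle for no effect and minimum signal wells for full effect; inactives centre near -20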
Arbovirus inh: blocks arbovirus infection; inhibition, % at 10 µM; arbovirus infection cell-based antiviral screen; hit rate 0.37% among 200,000;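 active = inhibition from about 30%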;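 note: bluetongue infection of BSR cells; cell survival read as ATP light after 72 h; 0% = infected wells without compound and 100% = uninfected wells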
Mtb H37Rv: M. tuberculosis H37Rv growth inhibitors, H37Rv strain (AID 1626) | M. tuberculosis H37Rv growth inhibition; higher % means a stronger effect | inhibition, % at 10 µM, or IC50 in µM where a hit was titrated | hit rate 0.95% among 220,000;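 active = confirmed in a dose series; inconclusive = inhibition above 80% but not taken into the dose series; inactive = below 80% or under 30% at every dose of the series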;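 note: bacteria incubated seven days before Alamar blue readout; 0% = bacteria only wells and 100% = bacteria with antibiotic wells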
Numbers without * were called inactive; ? = inconclusive; nt = not tested or not shown. The list is partial. The share of hits here may be higher or lower than overall.

SMILES	RecA splice inh	Mtb bLac sens	YopH PTP inh	Arbovirus inh	Mtb H37Rv
CC1CCN(C2=NC(=O)/C(=C/c3cn(-c4ccccc4)nc3-c3cccc(S(=O)(=O)N(C)C)c3)S2)CC1	-1.3	29	-45	-10	6%
Cc1cccc(OCc2nnc(SCC(=O)N3c4ccccc4CC3C)n2C)c1C (centres undefined)	nt	96	-8	-20	9%
Cc1noc(C)c1CSc1nnc(-c2ccccc2)o1	-0.8	-3	nt	3	1%
CCCC(=O)Nc1nnc(S(=O)(=O)N2CCCC2)s1	0.3	-4	nt	nt	nt
C=CCNC(=S)N1CCN(CCN=CC2=C(O)CC(c3ccc(Cl)cc3)CC2=O)CC1 (centres undefined)	2.5	-8	nt	1	16%
Cc1nc2c(-c3ccccc3)cnn2c(N2CCOCC2)c1C	-1.3	?	nt	nt	nt
Cc1cc[n+](CCC(=O)O)c2ccccc12	-2.8	9	8	11	-4%
CCc1cccc(CC)c1NC(=O)CN1CCN(c2ccccc2)CC1	nt	2	-1	3	9%
COc1ccccc1OCCSc1nc2ccccc2n1CCO	1.7	-7	nt	7	-6%
Cc1cc(N2CCOCC2)nc2ccc(NC(=O)CCC(=O)N3CCCC(C)C3)cc12 (centres undefined)	0.8	2	14	0	-3%
CCOC(=O)N1CCN(S(=O)(=O)c2ccc(Cl)cc2)CC1	-0.3	-3	nt	nt	nt
CCNC(=O)Nn1c(C)nnc1C	-2.3	-16	-14	4	-2%
CCCCNC(=O)COn1nnc2ccc(S(=O)(=O)N3CCOCC3)cc21	-0.4	-21	nt	nt	nt
CCCCNC(=O)Nc1nnc(-c2ccc(Cl)cc2)o1	2.5	99	4	3	1.3µM*
O=C(CC1=NC2(CCCC2)Cc2ccccc21)N1CCOCC1	0.8	9	-40	1	7%
COC(=O)CC(NS(=O)(=O)c1cccs1)c1ccc2c(c1)OCO2 (centres undefined)	-0.5	-1	nt	nt	nt
CCOc1ccc(C2C(C#N)=C(N)Oc3cc(C)[nH]c(=O)c32)cc1OC (centres undefined)	-4.5	-1	nt	nt	-7%
CCOc1ccc(OCC)c(NC(=O)CCn2c(=O)oc3ccccc32)c1	1.9	-2	-4	6	-5%
CCc1ccc(NC(=O)NCCN2CCCCC2)cc1	-0.5	-12	nt	nt	nt
Cc1cc2cc(CNC(=S)NCc3ccccc3)ccc2n1C	-1.2	2	nt	17	1%
COc1ccc(NC(=O)CN(C)C(=O)c2csc3c2CCCC3)cc1	-0.4	-17	nt	nt	nt
COCCn1c(SCC(=O)N2CCCCC2)nc2cccnc21	-0.3	-2	-7	9	nt
CC(=O)Nc1ccc(NC(=S)NC(=O)C2CCCC2)cc1	-7.1	-7	nt	nt	nt
COc1ccc(C(=O)[C@H]2[C@H]3C(=O)N(c4ccccc4)C(=O)[C@H]3C3C=CC=NN32)cc1 (some centres undefined)	4.3	-7	nt	nt	-7%
O=c1c2ccccc2nc(/C=C/c2cccc([N+](=O)[O-])c2)n1CCO	-2.1	-5	-17	14	37%
COc1ccc(C2CC(c3ccc(OC)c(OC)c3)=NN2S(C)(=O)=O)cc1 (centres undefined)	-1.6	-3	nt	nt	4%
C[C@@H](C(=O)N1CCNCC1)n1cc(CCC(=O)O)nn1	-0.8	6	nt	11	-15%
Cc1cccc(-n2c(SCC(=O)Nc3ncc(Cl)cc3Cl)nc3ccccc32)c1	23	-2	-1	3	10%
COc1ccc(CCNC(=O)/C=C/C(=O)O)cc1OC	-4.2	-6	nt	1	0%
Oc1ccc(Oc2ccc(Oc3ccc(O)cc3)cc2)cc1	-1.0	10	nt	nt	nt
CCc1noc(C)c1C(=O)NCCc1c[nH]c2ccccc12	0.4	-7	nt	nt	nt
CCOC(=O)N1CCN(C(=O)C2CCCN(S(=O)(=O)c3ccc(OCC)cc3)C2)CC1 (centres undefined)	1.7	-1	nt	nt	nt
COc1ccc(/C=C(/NC(=O)c2ccccc2)C(=O)N/N=C/c2sccc2C)cc1	0.0	-1	-35	-14	0%
N/C(=N\OC(=O)c1cccc(Br)c1)c1ccccn1	-1.6	11	nt	nt	nt
COc1cccc(OC)c1C(=O)NC(=S)Nc1ccc(S(=O)(=O)Nc2nccs2)cc1	-5.9	0	nt	-4	7%
COc1ccc(C(=O)N/C(=C\c2ccco2)C(=O)NCc2cccnc2)cc1	-1.8	-6	-8	-2	-4%
CS(=O)(=O)N1CCN(c2ccccc2NC(=O)c2cccnc2Cl)CC1	-2.4	-16	-20	5	-1%
O=C(CSCc1ccccc1Cl)NNC(=S)Nc1ccccc1	3.7	-5	0	13	8%
O=C(CSc1nc2ccccc2c(=O)n1CC1CCCO1)Nc1ccccc1Cl (centres undefined)	2.8	1	nt	nt	nt
CC(=O)c1ccc2c(c1)OCO2	0.9	-1	-14	6	-8%
CCCN=C1CC(C)(C)CC(=O)/C1=C(/O)CCCN1C(=O)c2ccccc2C1=O	-3.2	-4	nt	14	-9%
CC(C)(C)N(NC(=O)Nc1ccccc1)C(=O)c1ccccc1Cl	-0.3	-9	-29	-3	1%
CC1(C)C(=O)Nc2ccccc2N1C(=O)COc1ccc(S(=O)(=O)N2CCOCC2)cc1Cl	4.0	1	-17	6	-1%
Cc1cc(C)c(C)c(OCCOCCNCc2ccccc2)c1	0.5	-3	-17	-28	18%
CC(C)=CCC12Oc3cc(O)ccc3C1(O)Oc1cc(O)c([C@H]3C=C(C)CC(c4ccc(O)cc4O)[C@H]3C(=O)c3ccc(O)cc3O)c(O)c1C2=O (some centres undefined)	10	-1	nt	nt	1%
O=C(O)c1ccc(-n2nncc2-c2ccco2)cc1	1.5	6	nt	nt	nt
COc1ccc(Cl)cc1NC(=O)CN(C)C(=O)c1cc(-c2cccs2)nn1-c1ccccc1	25	-3	nt	nt	nt
Clc1ccc(-c2nc3ncccn3c2Nc2ccc3c(c2)OCCO3)cc1	1.0	4	-34	7	5%
COc1ccc(Nc2ccccc2)c(C)c1	-1.0	-9	-28	-6	4%
O=C(NCCN1CCCCC1)c1cc(Cl)ccc1Cl	-2.7	-3	nt	nt	nt
C#CCNc1c(C)c(C)nc2ncnn12	-1.0	-8	-14	5	4%
Cc1sc2ncnc(SCC(=O)N3CCCC(C(N)=O)C3)c2c1C (centres undefined)	-0.5	-13	nt	nt	nt
CC1CCN(S(=O)(=O)c2ccc(NC(=S)NC(=O)c3ccc(Cl)cc3)cc2)CC1	-1.3	40	-3	-1	7%
COc1cccc(NC(=O)C(=O)N/N=C/c2cc(C)n(-c3ccc(Cl)c(Cl)c3)c2C)c1	-2.3	8	-8	-20	65%
O=C(CSc1nc2ccccc2c(=O)n1NC(=O)c1ccccc1)c1ccccc1	1.7	12	-27	-2	-9%
CCC(=O)N1c2ccc(S(=O)(=O)N(CCO)Cc3ccccc3)cc2CC1C (centres undefined)	1.4	-10	9	2	6%
O=C(Nc1ccc2c(c1)C(=O)NC2=O)c1cc(Cl)ccc1Cl	-1.3	-1	nt	nt	nt
Cc1csc(NC(=O)Cc2ccc(Br)cc2)n1	-0.6	8	nt	nt	nt
CCCOc1ccc(-c2nc[nH]c2[N+](=O)[O-])cc1	1.6	2	nt	15	8%
O=C(O)/C=C/C(=O)NCc1cn(-c2ccccc2)nc1-c1cccc(Br)c1	16	-3	nt	-3	6%

Next entries
SMILES	RecA splice inh	Mtb bLac sens	YopH PTP inh	Arbovirus inh	Mtb H37Rv
CC(C)=CC(=O)OCC(=O)Nc1ncc(Cl)c(C)c1Cl	1.1	1	-32	1	-5%
COc1ccc(C(c2sc3nc(C)nn3c2O)N2CC(C)OC(C)C2)cc1OC (centres undefined)	-1.6	0	-39	4	-9%
CC(C)CC(NC(=O)C(NC(=O)C(Cc1ccc(OCc2ccccc2)cc1)NC(=O)OC(C)(C)C)C(C)C)C(N)=O (centres undefined)	1.7	-3	-19	-6	2%
CC(C)Nc1nc(NC(C)(C)C)nc(Oc2ccc(=O)n(C)n2)n1	0.1	-7	nt	-7	-2%
COc1cc(-c2cc(-c3nnco3)c3ccccc3n2)cc(OC)c1OC	-16	5	nt	-7	6%
CCOc1cccc2sc(N(CCN(C)C)C(=O)CCS(=O)(=O)c3ccccc3)nc12	1.3	2	nt	nt	nt
CCOc1cccc(C(=O)N/N=C/c2ccoc2)c1	-1.5	2	nt	nt	nt
O=C(CSC1=Nc2ccccc2C2CC=NN12)Nc1ccc2c(c1)OCO2 (centres undefined)	nt	nt	nt	-4	11%
CC(C)(C)NC(=O)c1nn2c(C(F)(F)F)cc(-c3ccccc3)nc2c1Br	-0.2	-8	nt	nt	nt
CSc1ncc(CN2CCc3c([nH]c4ccccc34)C2c2cccc(O)c2)cn1 (centres undefined)	0.7	99	nt	-11	17%
Cc1ccc(Oc2coc3cc(OC(=O)c4cccs4)ccc3c2=O)cc1	12	15	-19	-1	-7%
C=CCNC(=O)c1cc2nc(C3CC3)cc(C(F)F)n2n1	-5.4	-7	-1	3	-7%
O=C(Nc1nc2c(s1)CCCC2)c1cc(-c2ccncc2)nc2ccccc12	2.7	10	-19	-4	10%
CCCCNc1c2c3c(cccc3n(C)c1=O)C(=O)c1ccccc1-2	-83	32	-2	-21	14%
CCOc1cc(C(=O)CCC(=O)OCC(=O)N2c3ccccc3NC(=O)C2(C)C)ccc1O	-2.9	-4	-30	1	0%

Brought forward from above: 3 compounds, then new ones.
SMILES	RecA splice inh	Mtb bLac sens	YopH PTP inh	Arbovirus inh	Mtb H37Rv
O=C(Nc1nc2c(s1)CCCC2)c1cc(-c2ccncc2)nc2ccccc12	2.7	10	-19	-4	10%
CCCCNc1c2c3c(cccc3n(C)c1=O)C(=O)c1ccccc1-2	-83	32	-2	-21	14%
CCOc1cc(C(=O)CCC(=O)OCC(=O)N2c3ccccc3NC(=O)C2(C)C)ccc1O	-2.9	-4	-30	1	0%
Cc1ccccc1NCC(=O)N/N=C\C=C\c1cccc([N+](=O)[O-])c1	nt	13	-17	3	4%
COc1cccc(C(=O)CN2C(=O)C(C)(C)Oc3ccc(C(=O)N4CCCCCC4)cc32)c1	5.8	4	-23	-12	97%
COc1ccc(/C=C2\SC(=S)N(CCCC(=O)N3CCCCC3CCO)C2=O)cc1 (centres undefined)	19	-2	nt	nt	nt
O=C(Cc1ccccc1)NC(NCCc1ccccc1)C(Cl)(Cl)Cl (centres undefined)	3.1	0	3	-15	6%
Clc1ccccc1OCc1nc(-c2ccccn2)no1	-0.1	-5	3	-26	nt
CC(=O)Nc1sc(C)c(C)c1C(=O)OCC(=O)N(C)c1c(N)n(Cc2ccccc2)c(=O)[nH]c1=O	-2.0	-7	nt	nt	nt
CCOc1ccccc1Nc1nc(-c2sc(C)nc2C)cs1	-3.8	2	nt	-10	7%
COc1cc(OC)c(C(=O)/C=C/c2ccccc2)c(O)c1O	-0.5	-9	nt	nt	-3%
COCCOC(=O)c1ccc(NC(=O)COc2ccc([N+](=O)[O-])cc2)cc1	-1.8	27	nt	0	?
Cn1c2ccccc2c2n[nH]c(=S)nc21	3.0	1	nt	nt	nt
COC(=O)c1ccc2c(=O)n(CCN3CCOCC3)c(SCC(=O)c3ccccc3)nc2c1	1.1	96	nt	nt	3%
C=CCN1C(=O)C(CCCC)NC1=S (centres undefined)	0.5	-4	-29	0	3%

Compounds above that have two or more sulfur atoms, in the order listed:
SMILES	RecA splice inh	Mtb bLac sens	YopH PTP inh	Arbovirus inh	Mtb H37Rv
CC1CCN(C2=NC(=O)/C(=C/c3cn(-c4ccccc4)nc3-c3cccc(S(=O)(=O)N(C)C)c3)S2)CC1	-1.3	29	-45	-10	6%
CCCC(=O)Nc1nnc(S(=O)(=O)N2CCCC2)s1	0.3	-4	nt	nt	nt
COC(=O)CC(NS(=O)(=O)c1cccs1)c1ccc2c(c1)OCO2 (centres undefined)	-0.5	-1	nt	nt	nt
COc1cccc(OC)c1C(=O)NC(=S)Nc1ccc(S(=O)(=O)Nc2nccs2)cc1	-5.9	0	nt	-4	7%
O=C(CSCc1ccccc1Cl)NNC(=S)Nc1ccccc1	3.7	-5	0	13	8%
Cc1sc2ncnc(SCC(=O)N3CCCC(C(N)=O)C3)c2c1C (centres undefined)	-0.5	-13	nt	nt	nt
CC1CCN(S(=O)(=O)c2ccc(NC(=S)NC(=O)c3ccc(Cl)cc3)cc2)CC1	-1.3	40	-3	-1	7%
CCOc1cccc2sc(N(CCN(C)C)C(=O)CCS(=O)(=O)c3ccccc3)nc12	1.3	2	nt	nt	nt
COc1ccc(/C=C2\SC(=S)N(CCCC(=O)N3CCCCC3CCO)C2=O)cc1 (centres undefined)	19	-2	nt	nt	nt
CCOc1ccccc1Nc1nc(-c2sc(C)nc2C)cs1	-3.8	2	nt	-10	7%
